INS promoter inh = inhibitors of insulin promoter-driven GFP, primary screen, imaging, TRM-6 cells (human fetal islet line), eGFP reporter, cell count. reporter expression induced with tamoxifen. hit rate 0.9% among 130,000. inhibition, % at 2 µM. AID 1273, 2008;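 active = inhibition above the mean plus 3 SD, with well images judged a real hit on visual review, cut at about 60% in these data, passing the limit was not always enough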
HSV replic up = enhancers of HSV replication in host cells, fold increase, host cell viability; maximum fold increase; hit rate 0.005% among 220,000; HSV replication augmentation in cells;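 active = peak rise of 1.5-fold or more in the series; tested in PC3 cells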;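 also: first round at 10 µM; read as green reporter fluorescence; hits show the peak of a series up to 25 µM; 1 = signal of infected wells without compound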
PKD1 kinase inh = inhibitors of human PKD1 kinase, biochemical, fluorescence polarization | Serine/threonine-protein kinase D1 (Homo sapiens), Q15139 | PKD1 kinase fluorescence polarization assay | hit rate 0.056% among 200,000 | inhibition, %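 (about 10 µM by stock and volumes)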;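 active = inhibition of 50% or more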;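 also: controls were vehicle for no effect and a reference inhibitor for full effect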
Target sequence (Q15139 whole entry, looked up): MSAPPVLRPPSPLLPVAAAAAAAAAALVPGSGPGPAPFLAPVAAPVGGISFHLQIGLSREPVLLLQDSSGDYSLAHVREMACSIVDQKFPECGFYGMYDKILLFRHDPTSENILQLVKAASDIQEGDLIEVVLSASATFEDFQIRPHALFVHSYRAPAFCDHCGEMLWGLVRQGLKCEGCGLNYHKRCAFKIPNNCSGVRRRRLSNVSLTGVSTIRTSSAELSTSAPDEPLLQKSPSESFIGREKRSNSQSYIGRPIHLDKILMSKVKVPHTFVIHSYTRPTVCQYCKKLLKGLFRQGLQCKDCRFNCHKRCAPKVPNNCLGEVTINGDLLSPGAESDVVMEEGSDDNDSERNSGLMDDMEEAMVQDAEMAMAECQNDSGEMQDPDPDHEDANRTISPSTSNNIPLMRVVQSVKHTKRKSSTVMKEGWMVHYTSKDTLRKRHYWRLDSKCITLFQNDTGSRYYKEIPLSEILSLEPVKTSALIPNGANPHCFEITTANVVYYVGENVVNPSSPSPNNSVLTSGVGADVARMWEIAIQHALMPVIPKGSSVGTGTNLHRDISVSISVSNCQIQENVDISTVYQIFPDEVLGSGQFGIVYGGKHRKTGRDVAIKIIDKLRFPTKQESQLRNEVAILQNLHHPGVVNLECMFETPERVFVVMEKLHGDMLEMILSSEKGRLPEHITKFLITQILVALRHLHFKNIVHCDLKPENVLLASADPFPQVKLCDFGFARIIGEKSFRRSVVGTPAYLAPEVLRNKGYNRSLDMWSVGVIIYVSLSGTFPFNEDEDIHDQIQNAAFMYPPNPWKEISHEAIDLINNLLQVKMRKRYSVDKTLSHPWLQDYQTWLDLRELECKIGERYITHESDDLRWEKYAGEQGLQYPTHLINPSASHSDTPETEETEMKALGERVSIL
RGS16-Gao = modulators of RGS16 binding to Galphao, primary screen, biochemical, human proteins, multiplexed bead flow cytometry. bead-based flow cytometry RGS16-Galphao binding, fluorescence; actives lie on both sides. binding response (% of control), % at 10 µM. hit rate 0.38% among 220,000;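 active = below 25% or above 175%, edge rows of some plates excepted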;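 also: Galphao activated by GDP with aluminum fluoride before binding; 100% = wells without compound and 0% = beads without RGS; some results beyond the cut were filed as inactive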
GALR2 agonist = GALR2 receptor agonists, primary screen, cell-based. activation, %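 (tested at 5 µM)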. hit rate 0.48% among 140,000. Galanin receptor type 2 (Homo sapiens), O43603. AID 803, 2007. GALR2-expressing cells, agonist activation read-out;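 active = above mean plus 3 SD of all compounds, about 5% in these data, not always enough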;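 also: 0% = vehicle buffer wells and 100% = reference agonist at full effect; tested in CHO reporter cells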
INS promoter inh cell count = also measured in INS promoter inh; calls as there; normalized cell count, %; measured here: cell count, toxicity; reference of the scale not given here;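 cells exposed to compound for 48 h; stained nuclei by imaging scaled within each plate; lower means fewer cells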
HSV replic up primary fold = also measured in HSV replic up; calls as there; fold increase; compound at 10 µM; measured here: primary screen fold increase 10 uM; tested in PC3 cells;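 GFP signal in the first replicate; 1 = infected wells without compound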
* hit, by the source's call; i = inactive; / = no result given; [ ] = dose if it differs, or a comment.

SMILES,HSV replic up primary fold,HSV replic up,GALR2 agonist,INS promoter inh,RGS16-Gao,PKD1 kinase inh,INS promoter inh cell count
COc1ccccc1NS(=O)(=O)c1cccc(NC(=O)Nc2ccc(Cl)cc2)c1,1,i,/,-6,102,1,126
O=C(Nc1ccc2c(c1)OCCO2)C1CCCN(c2ncccn2)C1 (centres undefined),0.97,i,-1.8,11,105,-1,110
Cc1cc(OC(C)C(=O)N/N=C/CC(C)c2ccccc2)ccc1Cl (centres undefined),0.96,i,-2.6,48,85,1,119
O=C(N/C=C/c1ccccc1)Nc1ccc(Cl)cc1,0.98,i,-1.6,38,99,-6,118
CC(C)(C)C(C(=O)O)N1CCS(=O)(=O)CC1 (centres undefined),1,i,/,9,113,-7,94
CCN1CCN(C(=S)Nc2ccsc2C(=O)OC)CC1,0.96,i,/,-9,100,0,119
O=C(Oc1c(-c2ccccc2)c(=O)n2c3c(cccc13)CC2)c1ccc(Cl)cc1,1,i,/,/,86,/,/
O=C(NC(=S)NNS(=O)(=O)c1ccc(Cl)cc1)c1cccnc1,1.1,i,/,/,97,-1,/
Cc1nc(NC(=O)C2CCCC2)sc1Cc1ccc2c(c1)OCO2,0.9,i,-2.9,14,103,-16,100
CC(=O)N1c2c(cc(Br)cc2S(=O)(=O)N2CCN(C(=O)c3ccco3)CC2)CC1C (centres undefined),0.93,i,1.4,16,102,3,138
COc1cc(CNn2nnnc2N)ccc1OCC(=O)NC(C)(C)C,0.92,i,-2.2,3,103,2,97
Cc1cc2nc(C)n(CCCNC(=O)Nc3cccc4ccccc34)c2cc1C,0.91,i,-1.8,-41,116,7,100
CCOc1ccc2c(c1)c(N=Nc1cccc(C(=O)O)c1)c(O)n2C,0.93,i,0.1,24,103,18,161
O=S(=O)(Nc1ccc(Cc2ccncc2)cc1)c1ccc(Cl)s1,0.94,i,-1.0,-3,101,0,126
COC(=O)c1cc(NCc2c(F)cccc2Cl)ccc1N1CCOCC1,0.93,i,-0.9,/,81,-5,/
O=C(NC(C(=O)O)c1ccccc1)c1ccc(S(=O)(=O)N2CCOCC2)cc1 (centres undefined),1.2,i,-1.3,-388,100,-4,121
COc1ccc(/C(O)=C/Sc2nnc(Cc3ccccc3)o2)cc1,/,/,-2.6,-20,104,1,52
CCc1nnc(NC(=O)CSc2nnc(-c3cc4ccccc4cc3O)n2CCOC)s1,0.71,i,-1.6,-33,99,-8,106
COc1ccc(NC2=Nc3ccccc3N3C2=Nc2c(c(C)nn2-c2ccc(C)cc2)C3c2cccnc2)cc1 (centres undefined),1.1,i,0.6,38,102,-2,100
Cc1cccc2sc(NC(=O)C3CCCN(S(=O)(=O)c4cccc5nonc45)C3)nc12 (centres undefined),1.2,i,0.3,-9,108,-1,60
CCOc1ccc(S(=O)(=O)NCCC(=O)OCN2C(=O)c3ccccc3C2=O)cc1,1.1,i,0.1,0,101,-1,143
O=C(NC1CCCCC1)c1ccc(N2CCCC2=O)cc1,0.97,i,-0.9,/,211*[activator],-2,/
COC(=O)c1cn(C(=O)c2ccc(C)cc2)c2ccccc12,0.91,i,/,/,102,-1,/
CCN(CC)c1ccc(NC(=O)Nc2cccc(C(C)=O)c2)cc1,0.73,i,1.4,16,-17*,2,81
COc1ccc(OC)c2[nH]c(=O)c(CCNC(=O)c3cc4ccccc4o3)cc12,0.87,i,-1.3,-50,102,-2,122
CCOc1ccc(-n2c(Cc3cc(=O)[nH]c(=O)[nH]3)nnc2SCc2cccnc2)cc1,/,/,-0.1,/,103,-8,/
O=C(NCc1ccco1)c1ccc(=O)oc1,1,i,-0.2,/,96,-5,/
S=c1[nH]nc(-c2ccncc2)n1/N=C/C(Cl)=C\c1ccccc1,0.74,i,/,/,99,-8,/
CC1CCN(CCC(=O)NN)CC1,0.88,i,/,50,101,-1,121
COc1cccc(NC(=O)C2CC(=O)OC23CCOC(C)(C)C3)c1 (centres undefined),1,i,-1.9,-23,87,-1,98
CCOC(=O)C1CCN(C(=O)c2c(C)oc3c2C(=O)c2ccccc2C3=O)CC1,0.46,i,-1.4,15,109,-5,69
Cc1nnc(NC(=O)Oc2ccccc2)s1,0.85,i,-1.0,-38,100,1,54
Cc1ccc(NC(=O)CN2C(=O)S/C(=C/c3ccc(O)c([N+](=O)[O-])c3)C2=O)cc1C,0.71,i,/,/,74,3,/
Cc1cccc(N(C(=O)CNC(=O)c2cccs2)C(C(=O)NC2CCCC2)c2cccnc2)c1 (centres undefined),0.95,i,-1.5,-26,100,-2,88
CNC(=O)N(O)C1N(NC(=O)Nc2ccccc2)C(=S)SC1(C)C (centres undefined),/,/,-0.1,-20,/,-4,108
CCOC(=O)C1CCCN(S(=O)(=O)c2cccs2)C1 (centres undefined),0.98,i,-1.9,-462,101,3,50
Cc1ccc2nc(CSc3nnc4ccccn34)cc(=O)n2c1,1,i,/,-42,107,-9,39
COc1cc(/C=C(/C#N)c2ccc(F)cc2)ccc1Oc1ccc([N+](=O)[O-])cn1,0.95,i,-2.2,-10,103,-7,152
CCN(CCCNC(=O)CN(C)S(=O)(=O)c1cccc2nsnc12)c1ccccc1,/,/,-4.9,/,104,-9,/
Cc1cccc(C(=O)Nc2nnc(Cc3c[nH]c4ccccc34)s2)c1,0.94,i,-2.2,/,107,-7,/
Cc1ccc(C(=O)N2CCCC2)cc1Br,1,i,-2.7,-34,106,0,105
COC(=O)c1cc(O)cc(OC)c1Oc1cc(C)cc(O)c1C(=O)O,0.64,i,/,/,95,/,/
O=[N+]([O-])c1cc(S(=O)(=O)N2CCCC2)ccc1NCCCN1CCOCC1,1.1,i,/,/,98,-4,/
Cc1ccc(S(=O)(=O)Nc2nc(C)c(C(=O)NNS(=O)(=O)c3ccccc3)s2)cc1,1.1,i,/,/,89,/,/
Cc1cnc(C(=O)OCC(=O)NC2CCCC(C)C2C)cn1 (centres undefined),0.93,i,-1.4,-44,107,-6,104
CC(C)NC(=S)N1CCN(S(C)(=O)=O)CC1,0.95,i,-0.7,/,117,-14,/
CCOc1cc(C2/C(=C(\O)c3cc(C)ccc3C)C(=O)C(=O)N2CCN(C)C)ccc1O (centres undefined),1,i,-2.9,22,98,7,83
O=C(CCCc1ccccc1)NC1CCSC1=O (centres undefined),0.79,i,-2.6,0,111,-11,118
NS(=O)(=O)c1ccc(NC(=O)COC(=O)Cc2ccc(Cl)cc2)cc1,1.1,i,/,/,102,/,/
O=c1[nH]c(NCCO)nc2c1C1(CCCC1)Cc1ccccc1-2,0.9,i,0.2,-14,106,-4,116
CCC1CCCCN1C(=O)c1noc(C(C)C)c1[N+](=O)[O-] (centres undefined),1.1,i,-2.4,7,99,5,123
COC(=O)c1sc(-c2ccc(C(C)(C)C)cc2)cc1NC(=O)c1ccccc1C(=O)O,1.1,i,/,/,97,/,/
Cc1ccc(NC(=S)/C(=C(\[O-])c2ccc(C)c([N+](=O)[O-])c2)[n+]2ccccc2)cc1C,0.95,i,-2.5,-9,58,5,100
COC(=O)C1=C(C)C(c2ccc(OC)cc2OC)NC(=O)N1 (centres undefined),0.87,i,-2.9,-11,103,-3,39
C=CCN(C(=O)c1cccc(C(F)(F)F)c1)C1(C(=O)Nc2ccccc2)CCN(C(C)C)CC1,0.93,i,/,/,105,0,/
COc1ccccc1OCC(=O)Nc1ccc(C(N)=O)cc1,0.88,i,-0.9,-13,101,-1,179
Cc1cc(=O)oc2cc(OC(C)C(=O)N3CCOCC3)ccc12 (centres undefined),0.91,i,-0.6,-21,91,-8,204
CCOC(=O)CSc1ncccn1,1,i,/,/,100,7,/
Cc1cc(NNC(=O)Nc2cccc(Cl)c2)nc2c1c(C)nn2C,0.98,i,/,/,102,/,/
CC(=O)N1CCC(N(CCN2CCOCC2)C(=S)Nc2ccc(C)cc2C)CC1,1,i,/,-18,96,-7,116

Part of the list above, showing only HSV replic up and GALR2 agonist:
SMILES,HSV replic up,GALR2 agonist
Cc1cccc2sc(NC(=O)C3CCCN(S(=O)(=O)c4cccc5nonc45)C3)nc12 (centres undefined),i,0.3
CC(=O)N1c2c(cc(Br)cc2S(=O)(=O)N2CCN(C(=O)c3ccco3)CC2)CC1C (centres undefined),i,1.4
CNC(=O)N(O)C1N(NC(=O)Nc2ccccc2)C(=S)SC1(C)C (centres undefined),/,-0.1
COC(=O)c1sc(-c2ccc(C(C)(C)C)cc2)cc1NC(=O)c1ccccc1C(=O)O,i,/
CCOc1ccc2c(c1)c(N=Nc1cccc(C(=O)O)c1)c(O)n2C,i,0.1

The listing continues:
SMILES,HSV replic up primary fold,HSV replic up,GALR2 agonist,INS promoter inh,RGS16-Gao,PKD1 kinase inh,INS promoter inh cell count
COc1cccc(NC(=O)C/C(C)=N/NC(=O)c2ccccc2Cl)c1,0.94,i,/,/,99,/,/
N#CCCN1CCN(S(=O)(=O)c2ccc(C#N)cc2)CC1,0.9,i,0.3,39,101,-7,109
COc1ccc(CCNc2c([N+](=O)[O-])ncn2C)cc1OC,0.76,i,/,/,101,/,/
COCCCNC(=S)NC(=O)c1ccccc1,0.91,i,-2.6,23,106,2,105
COc1cc(OC)cc(C(=O)Nc2ccccc2C(=O)N2CCCC2)c1,0.97,i,-0.5,20,101,-2,97
O=C(/C=C/c1ccc(OCCCF)cc1)NCc1cccc(Cl)c1,0.82,i,-1.9,-110,79,-9,144
NC(=O)CN1CCOCCOCCOCCOCCOCC1,0.96,i,-3.6,27,104,-16,122
CC(=O)N1C(=S)NC(=O)/C1=C1/C(=O)N(CC(=O)Nc2cccc(C)c2)c2ccccc21,0.78,i,0.0,-108,102,1,80
Cc1ccc(Cn2nnc3c(=O)[nH]c(C4CCCN(S(=O)(=O)c5ccccc5)C4)nc32)cc1 (centres undefined),0.87,i,-4.5,-3,-107*,-2,61
COC(=O)c1nc(N)sc1-c1ccc(Cl)c(Cl)c1,0.9,i,/,/,103,/,/
Cc1ccc(CN2CCN(/N=C/c3cc([N+](=O)[O-])ccc3Cl)CC2)cc1,0.87,i,-3.4,0,103,-4,88
O=C1CN(C(=O)/C=C/c2ccco2)c2ccccc2N1,1.1,i,/,/,97,-8,/
COc1cc(NC(=S)NC(=O)c2cc(C)cc(C)c2)ccc1NC(=O)c1cccs1,1,i,-1.0,/,109,1,/
CC(CN1CCCCC1)OC(=O)Cc1ccc(Cl)cc1 (centres undefined),1.1,i,-1.3,25,99,-8,131
Cc1csc(=NC(=O)c2ccccc2)n1CCO,0.96,i,-1.7,/,100,6,/
Cc1nn(C)c(Oc2ccc(Cl)cc2)c1C(=O)Nc1ccc(F)cc1F,0.96,i,-1.7,41,95,3,110
CC1CCCC(NC(=O)COC(=O)CCSc2ccccc2)C1C (centres undefined),0.93,i,/,0,104,-5,91
CCOc1c2ccc(C(=O)N[C@H](C)C3CCCCC3)cc2nn1CCOC,1.2,i,0.7,41,99,-3,86
CCCCN(CCCNC(=O)C1CCN(S(=O)(=O)N2CCOCC2)CC1)Cc1ccccc1,1,i,1.6,38,103,4,52
Cc1noc(C)c1C(=O)Nc1ccc(F)c(F)c1,1.1,i,-0.1,8,102,3,114
Cc1ccc(-c2ccc(/C=C3\C(=O)ON=C3c3ccccc3)o2)c([N+](=O)[O-])c1,0.88,i,-0.5,-45,74,-11,66
O=C(CCc1nnc(CCCCc2ccccc2)o1)NCCC1CCCCO1 (centres undefined),0.99,i,/,/,110,0,/
CCOc1ccc(N(CC(=O)O)S(=O)(=O)c2ccc(F)cc2)cc1,0.98,i,-1.3,8,101,10,83
COc1ccc(CSc2nnnn2C)cc1F,0.93,i,0.3,/,95,-1,/
COCCCNS(=O)(=O)c1ccc(Oc2ncc(C(F)(F)F)cc2Cl)cc1,0.97,i,-1.5,-75,109,11,107
CCOCC(=O)Nc1ccc(F)c(F)c1,0.92,i,-1.8,43,108,-3,102

Fetched one by one from above, 2 records:
SMILES,HSV replic up primary fold,HSV replic up,GALR2 agonist,INS promoter inh,RGS16-Gao,PKD1 kinase inh,INS promoter inh cell count
Cc1ccc(CN2CCN(/N=C/c3cc([N+](=O)[O-])ccc3Cl)CC2)cc1,0.87,i,-3.4,0,103,-4,88
N#CCCN1CCN(S(=O)(=O)c2ccc(C#N)cc2)CC1,0.9,i,0.3,39,101,-7,109

Bioassay records from PubChem.
